# Ecoli growth = E. coli growth inhibition, primary screen, OD600; Escherichia coli growth, 23 h; hits give low values; OD600 absorbance (test concentration not listed); 330,000 tested, 0.21% active; AID 1053175, 2014;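 active means OD600 absorbance below the run mean of sample wells minus 3.6 SD, in any replicate, cut at about 0.56 in these data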;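 further: stock transfer was 300 nL into about 60 µL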
# LANA-H2A inh = blockers of LANA interaction with H2A/H2B – biochemical, FP readout, HTS, primary screen; AID 2629, 2010; Protein LANA1 (Human herpesvirus 8 type P (isolate GK18)), Q9QR71; cell-free LANA-H2A/H2B peptide, fluorescence polarization; 320,000 tested, 0.6% active; inhibition, % (concentration not given with the values); in the data active means inhibition mostly above about 10%, no sharp cut-off; inactive means mostly below about 6.7%;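 further: stock transfer was 7.5 nL into about 10 µL; 0% = median of vehicle wells and 100% = median of positive control wells; one replicate is shown; the record names a cut of 25% in any replicate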
# Target sequence (Q9QR71 whole entry, looked up): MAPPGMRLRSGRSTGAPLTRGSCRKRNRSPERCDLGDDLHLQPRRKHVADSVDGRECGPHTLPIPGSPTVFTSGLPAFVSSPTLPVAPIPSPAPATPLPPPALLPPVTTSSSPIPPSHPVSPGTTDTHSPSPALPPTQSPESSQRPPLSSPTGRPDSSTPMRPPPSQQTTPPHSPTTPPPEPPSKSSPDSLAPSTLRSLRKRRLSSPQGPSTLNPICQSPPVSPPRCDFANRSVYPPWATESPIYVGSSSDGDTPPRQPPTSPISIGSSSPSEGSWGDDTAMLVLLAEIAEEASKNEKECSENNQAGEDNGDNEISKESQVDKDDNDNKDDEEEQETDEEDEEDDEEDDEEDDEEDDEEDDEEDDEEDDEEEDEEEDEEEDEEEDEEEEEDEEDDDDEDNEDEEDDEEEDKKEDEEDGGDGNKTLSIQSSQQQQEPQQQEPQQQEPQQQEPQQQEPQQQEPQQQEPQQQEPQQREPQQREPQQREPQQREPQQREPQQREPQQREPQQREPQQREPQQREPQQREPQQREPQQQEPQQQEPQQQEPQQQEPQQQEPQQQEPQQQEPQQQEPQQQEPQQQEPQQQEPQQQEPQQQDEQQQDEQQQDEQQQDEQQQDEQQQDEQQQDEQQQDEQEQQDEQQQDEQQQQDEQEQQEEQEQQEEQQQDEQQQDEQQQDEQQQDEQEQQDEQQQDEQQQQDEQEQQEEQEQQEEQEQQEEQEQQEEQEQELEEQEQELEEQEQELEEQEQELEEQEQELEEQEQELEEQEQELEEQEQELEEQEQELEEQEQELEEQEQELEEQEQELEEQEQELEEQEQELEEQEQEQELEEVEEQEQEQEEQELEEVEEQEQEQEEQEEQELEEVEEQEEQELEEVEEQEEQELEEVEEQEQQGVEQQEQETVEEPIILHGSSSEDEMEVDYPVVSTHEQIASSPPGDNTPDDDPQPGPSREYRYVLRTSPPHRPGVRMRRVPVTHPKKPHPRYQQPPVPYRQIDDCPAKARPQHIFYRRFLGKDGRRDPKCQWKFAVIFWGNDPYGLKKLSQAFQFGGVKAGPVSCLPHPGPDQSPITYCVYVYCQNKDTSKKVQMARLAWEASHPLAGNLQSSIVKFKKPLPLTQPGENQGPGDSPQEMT
# FGF22 binding = binders of human FGF22 protein, primary screen, FGF22 synaptogenesis inhibitor project, biophysical, thermal shift, single point; Fibroblast growth factor 22 (Homo sapiens), Q9HCT0; recombinant FGF22 thermal shift, SYPRO orange fluorescence; percent of sucrose octasulfate shift, DMSO zero; calls only at 9.99 µM; 340,000 tested, 1.5% active; AID 651658, 2012;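 active means melting point raised past a set limit in the mean and every replicate; three in four hits are not shown here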
# ALR H2O2 inh = inhibitors of human ALR sulfhydryl oxidase, primary screen, biochemical, H2O2 detection, HRP-luminol luminescence, single point | FAD-linked sulfhydryl oxidase ALR (Homo sapiens), P55789 | purified ALR, DTT oxidation | inhibition, % (test concentration not listed) | 290,000 tested, 3.8% active;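 active means mean and each replicate at 75% or more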;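 further: stock transfer was 7.5 nL into about 7.5 µL; 0% = neutral wells and 100% = wells with inactivated enzyme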
# Beta2AR agonist = beta2AR agonists driving receptor internalization, primary screen, cell-based, FAP fluorogen, flow cytometry. Beta-2 adrenergic receptor (Homo sapiens), P07550. Am2.2-beta2AR cells; reference of the scale not given here. response, % (no concentration beside the values). 340,000 tested, 0.43% active;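 active means response above a set limit, near 3 SD of response in nonfluorescent compounds, cut at about 42% in these data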;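 further: stock transfer was 100 nL into about 11 µL; a reference agonist was the positive control; negative values mostly stem from fluorescent compounds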
# HNF4A DNA FP = change in binding of human HNF4A to DNA, primary screen, biochemical, fluorescence polarization, FITC-DNA; Hepatocyte nuclear factor 4-alpha (Homo sapiens), P41235; 1 h; activity change, % at 10 µM; 360,000 tested, 0.3% active; in the data active means activity change above about 30%, passing the limit was not always enough;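 further: controls were the assay level and a saturating level of protein; the project sought stronger binding though the title names inhibitors; some compounds called inactive have numbers as strong as hits; positive values seem to mean higher polarization but the record does not say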
# UCH37 inh = inhibitors of human UCH37 deubiquitinase, primary screen, biochemical, Ub-AMC cleavage, fluorescence; Ubiquitin carboxyl-terminal hydrolase isozyme L5 (Homo sapiens), Q9Y5K5; purified proteasome/UCH37; inhibition, % (no concentration beside the values); 330,000 tested, 0.33% active;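 active means mean of two replicates above 20%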;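 further: 0% = compound-free wells with enzyme and 100% = wells lacking proteasome; stock transfer was 100 nL into about 20 µL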
#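 Schedule: 30 min plus 25 min, room temperature / Material: human UCH37 within purified proteasomes / Technique: AMC fluorescence intensity at 355/460 nm / Buffer or medium: pH 7.4 Tris-HCl (50 mM) with ovalbumin, ATP-MgCl2, DTT / Controls: wells without proteasome as full block, compound-free enzyme plus substrate as uninhibited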
# * hit, by the source's call; i = inactive; . = not tested or not shown; + = active, no number. Not all compounds are listed; count on the stated rates, not on these rows.
SMILES,Ecoli growth,LANA-H2A inh,FGF22 binding,ALR H2O2 inh,Beta2AR agonist,HNF4A DNA FP,UCH37 inh
CC(Cc1cccnc1)NC(=O)CCc1nnc(-c2ccccc2)o1 (stereo unspecified),0.69,4.2,i,-1,-9,2.9,1.6
CCCCCc1nc(-c2nonc2N)no1,0.7,-0.7,.,-7,-1,-3.4,-0.6
Cc1cc(=O)[nH]c(NN)n1,0.68,1.0,i,10,-1,-3.4,1.1
CC(Sc1nncs1)C(=O)Nc1ccc2c(c1)OCO2 (stereo unspecified),0.73,-7.1,i,-20,3,-1.7,-0.3
CCn1c(C)nc2cc(C(=O)NNC(=S)Nc3ccc(C)cc3)ccc21,0.69,-0.7,i,86*,5,0.8,3.2
C=CCNC(=O)C1CC(=O)N(c2ccc(OCC(=O)Nc3c(C)cccc3C)cc2)C1 (stereo unspecified),0.69,4.4,i,-3,-5,-0.4,-1.4
Cc1cc2nc(C)n(CCCNC(=O)Nc3ccccc3)c2cc1C,0.65,-5.4,.,0,-8,1.7,1.6
Cc1cc(NC(=O)COC(=O)C2CSC3(C)CCC(=O)N23)ccc1Br (stereo unspecified),0.71,0.7,i,48,0,1.5,2.2
CCn1c(SCC(N)=O)nnc1-c1ccc2[nH]c(C)c(C)c2c1,0.74,-5.6,.,-6,0,-4.1,-3.0
COc1cc(C(=O)Oc2ccc(C(=S)N3CCOCC3)cc2)cc(OC)c1OC,0.67,2.1,i,-36,-5,-4.4,5.3
OCCNCC(O)Cn1ccc2ccccc21 (stereo unspecified),0.73,0.0,.,-2,-2,0.2,3.1
CCCCNc1ncnc2c1cnn2-c1ccc(C)cc1C,0.73,5.1,i,71,-15,11,4.9
O=C(CCCOc1ccc(Cl)cc1Cl)n1nnc2ccccc21,0.65,-2.6,i,-3,5,0.2,1.5
Cc1ccc2nc(CSc3nnc(Cc4cccs4)n3C3CCCCC3)cc(=O)n2c1,0.73,-2.1,.,0,3,-1.6,-7.5
O=S(=O)(NC(=NC1CCCCC1)c1ccccc1)c1ccc(F)cc1,0.7,-2.5,i,-4,-3,-4.9,0.8
O=C(c1cc(F)ccc1F)C1CCCN(C(=O)CCCN2CCCCC2=O)C1 (stereo unspecified),0.65,-1.3,i,3,-4,-1.5,3.5
CN(C)S(=O)(=O)c1cccc(NC(=S)N/N=C/C(c2ccccc2)c2ccccc2)c1,.,4.5,.,13,-1,-1.7,.
COc1ccccc1NS(=O)(=O)c1cccc(C(=O)NNC(=O)c2ccc(O)c(Cl)c2)c1,0.69,0.3,i,8,-6,1.9,1.9
COc1cc(OC)cc(C(=O)Nc2cccc(NC(=O)c3ccccc3)c2)c1,0.68,2.9,i,14,9,3.0,4.2
O=C(Cc1cccs1)N1CCN(S(=O)(=O)c2ccc(F)c(F)c2)CC1,0.72,4.9,i,-4,-1,1.4,1.3
O=C(O)CC(NC(=O)CCC1CCCCC1)c1cc([N+](=O)[O-])ccc1Cl (stereo unspecified),0.65,1.4,i,-4,-5,-0.9,2.8
Cc1cc(OCC(=O)OCC(=O)N2CCc3ccccc32)ccc1Cl,0.69,.,i,.,-8,-2.2,4.9
Cc1nnc2n1N=CC=C(c1ccccc1)S2,0.71,-2.1,.,31,-8,-2.3,4.8
Cc1ccccc1NS(=O)(=O)c1ccc(C(=O)NN2CCCCC2)cc1,0.7,-2.8,i,11,6,-0.5,5.1
Cc1csc(SCC(=O)Nc2sc3c(c2C#N)CCC3)n1,0.68,1.6,.,8,-11,2.2,1.7
COc1ccc(-c2nn(-c3ccccc3)cc2/C=C2/SC(=S)N(CCC(=O)O)C2=O)cc1,0.57,-3.9,i,.,23,-2.9,9.0
CCC1=C(OC(=O)N(CC)CC)N2C(=O)OC(=NCCc3c[nH]c4ccccc34)[C@]2(Cc2ccccc2)[C@H]2C1=CC[C@H]1C(=O)N(c3ccccc3)C(=O)[C@H]12,.,-0.9,.,-4,1,0.2,3.6
CC(=O)N1CCc2cc(S(=O)(=O)Nc3ccc(C)cc3)ccc21,0.68,5.4,i,-7,-12,-0.9,4.2
CC1CC(C)CN(C(=O)C(C)N2CCN(S(=O)(=O)c3ccccc3F)CC2)C1 (stereo unspecified),0.67,2.1,i,-3,-6,-1.6,2.3
O=[N+]([O-])c1ccc(Cl)cc1NCCCN1CCOCC1,0.66,0.3,i,-4,-5,-1.1,2.3
O=C(CSc1nncs1)Nc1ccc2c(c1)OCO2,0.7,1.3,i,-9,2,4.2,0.4
O=C(Nc1ccc(F)cc1)N1CCCC(c2nc3c(nnn3Cc3ccccc3Cl)c(=O)[nH]2)C1 (stereo unspecified),0.68,3.9,i,-24,-1,2.6,2.4
CC(C)(C)c1ccc(C(=O)CSc2ncn[nH]2)cc1,0.7,-4.9,.,16,1,-4.8,5.0
CCOC(=O)Nc1ccc2c(c1)N(C(=O)CCN1CCN(CCO)CC1)c1ccccc1S2,0.69,-1.5,.,14,-2,2.4,4.5
O=C(c1cccc(C(F)(F)F)c1)C1CCCN(C(=O)CCn2cnnn2)C1 (stereo unspecified),0.75,4.4,i,.,6,3.1,5.3
Cc1ccc(NC(=O)Cn2cc(C(=O)C3CC3)c3ccccc32)cc1,0.71,-4.0,i,-9,4,-1.6,0.9
Cn1c(=O)c2c(nc(SCCN3CCCCC3)n2Cc2ccc(Cl)cc2)n(C)c1=O,0.72,-0.1,.,-5,-3,-0.7,0.7
COc1ccc(N2CCN(C(=O)COCC(=O)O)CC2)cc1,0.67,6.0,i,-5,6,3.1,-0.1
COc1ccc(CCNC(=O)CCCn2nc(C)n3ccnc3c2=O)cc1OC,0.72,4.6,i,-5,5,0.8,1.3
CC1=C(C#N)C(=O)NC(=O)/C1=C\c1ccc(-c2cc(C)c(C)cc2[N+](=O)[O-])o1,0.71,.,+,.,1,-3.3,20*

# An excerpt from above with just FGF22 binding and HNF4A DNA FP.
SMILES | FGF22 binding | HNF4A DNA FP
CC(C)(C)c1ccc(C(=O)CSc2ncn[nH]2)cc1 | . | -4.8
CCOC(=O)Nc1ccc2c(c1)N(C(=O)CCN1CCN(CCO)CC1)c1ccccc1S2 | . | 2.4
O=C(c1cccc(C(F)(F)F)c1)C1CCCN(C(=O)CCn2cnnn2)C1 (stereo unspecified) | i | 3.1
Cc1ccc(NC(=O)Cn2cc(C(=O)C3CC3)c3ccccc32)cc1 | i | -1.6
Cn1c(=O)c2c(nc(SCCN3CCCCC3)n2Cc2ccc(Cl)cc2)n(C)c1=O | . | -0.7

# Rewritten with bars between the fields: entries from further up
mol | Ecoli growth | LANA-H2A inh | FGF22 binding | ALR H2O2 inh | Beta2AR agonist | HNF4A DNA FP | UCH37 inh
Cn1c(=O)c2c(nc(SCCN3CCCCC3)n2Cc2ccc(Cl)cc2)n(C)c1=O | 0.72 | -0.1 | . | -5 | -3 | -0.7 | 0.7
COc1ccc(N2CCN(C(=O)COCC(=O)O)CC2)cc1 | 0.67 | 6.0 | i | -5 | 6 | 3.1 | -0.1

# Later entries
SMILES,Ecoli growth,LANA-H2A inh,FGF22 binding,ALR H2O2 inh,Beta2AR agonist,HNF4A DNA FP,UCH37 inh
COc1cc(C2C(=O)c3ccccc3C2=O)ccc1O,0.66,-1.1,i,.,4,1.6,-145
O=C(O)c1cc2c(ccc3ccccc32)[nH]1,0.68,-0.9,.,-6,2,-3.2,4.1
O=C(CN1C(=O)CCS(=O)(=O)c2ccccc21)Nc1cccc(Cl)c1,0.75,6.0,.,-4,-2,1.6,-2.2
Cc1ccc(S(=O)(=O)N2CCN(C(=O)Cc3ccc(S(=O)(=O)N4CCOCC4)s3)CC2)cc1,0.73,-0.1,i,-7,-8,3.5,3.1
COC(=O)c1c(NC(=O)C2COc3ccccc3O2)sc2c1CCN(C(C)=O)C2 (stereo unspecified),0.68,0.8,.,.,9,-5.4,3.7
COCCN(C(=O)COC(=O)Cc1cccc(OC)c1)c1c(N)n(Cc2ccccc2)c(=O)[nH]c1=O,0.69,-1.0,i,3,5,0.8,0.7
COc1ccc(NC(=O)CSc2ncccc2C(=O)OC(C)C)cc1OC,0.72,0.0,.,-25,-10,3.2,3.6
Cc1ccnc(N2CCC(C(=O)NNC(=O)c3ccccc3)CC2)n1,0.71,1.9,i,0,-4,5.1,-9.5
Cc1cccc(NC(=O)CSc2nnc(NC(=O)c3ccc(S(=O)(=O)N4CCOCC4)cc3)s2)c1C,0.69,.,i,.,.,.,-7.7
COCCN(CCOC)S(=O)(=O)c1ccc(NC(=O)c2cnccn2)cc1,0.6,4.3,i,-14,2,1.3,4.5
CNC(=S)N(CCc1ccc(S(N)(=O)=O)cc1)C1CC(=O)N(c2ccccc2F)C1=O (stereo unspecified),0.72,3.9,i,5,2,-1.0,1.7
Cc1cc(NC(=O)CSCC(=O)Nc2ccccc2OC(F)F)no1,0.65,-0.6,i,.,-13,3.0,0.8
COCCn1c(-c2cccs2)csc1=Nc1cccnc1,0.65,0.6,i,-10,5,-1.9,2.1
COc1ccc(NC(=O)CSc2nnc3ccc(-c4ccncc4)nn23)cc1OC,0.68,4.6,i,-10,8,2.6,1.1
O=C1CN(c2nc3nonc3nc2N2CCCCC2)CCN1,0.7,-5.4,i,-11,6,-4.7,13
COc1ccccc1NS(=O)(=O)c1cccc(C(=O)NC2CCN(Cc3ccccc3)CC2)c1,0.69,2.6,.,-3,4,1.3,1.4
Cc1ccccc1Nc1c(-c2ccncc2)nc2ccc(Cl)cn12,0.67,-1.4,i,.,-1,-0.6,-38
CCCN1CCC(NC(=O)CC2C(=O)NCCN2Cc2ccccc2C)CC1 (stereo unspecified),0.65,4.2,i,-48,2,-1.0,-2.1
CCC(=O)Nc1nc2ccc3nc(C)sc3c2s1,0.72,2.3,i,.,-17,-1.5,6.4
CC(=O)Nc1ccc(NC(=O)[C@@H](NC(=O)c2ccccc2F)C(C)C)cc1,0.67,4.4,i,.,7,0.2,3.5
CCC(c1nnc(SCC(=O)Nc2cc(C)on2)o1)N(C)C (stereo unspecified),0.7,0.9,i,1,-6,-0.9,3.1
CC(C)(C)c1cc(NS(=O)(=O)c2ccc(Br)s2)no1,0.7,-0.4,i,4,5,7.0,0.5
O=C(NNS(=O)(=O)c1ccccc1)c1cnn(-c2ccccc2)c1-n1cccc1,0.73,-0.7,.,62,-4,2.7,-1.7
Cc1cc(N(C)C)nc(Nc2ccccc2)n1,0.64,1.6,i,0,3,1.6,0.9
CC(CCc1ccco1)NC(=O)CSc1cc(=O)n(C)c2ccccc12 (stereo unspecified),0.72,-4.6,.,2,12,-1.4,4.8
Cc1ccc(F)cc1NC(=O)CN1CCN(Cc2ccccc2)CC1,0.67,-7.4,i,.,-7,5.2,4.7
Cc1ccc2[nH]c(-c3ccccc3)c(CN3CCCC3)c(=O)c2c1,0.65,-7.3,i,-8,10,-1.8,-0.6
COc1cc(C(=O)OCC(=O)N2CCCC2)cc(OC)c1OC,0.74,-3.8,.,-2,0,-3.0,-2.1
COc1ccc(CN(C)C(=O)CNC(=O)c2sc3ccccc3c2Cl)c(OC)c1OC,0.66,.,i,.,7,0.8,-2.0
C[C@@H](NC(=O)c1ncn(Cc2ccccc2)c1C(=O)N[C@H](C)c1ccccc1)c1ccccc1,.,-2.3,i,-2,3,-4.0,2.8
CC(=O)NC1=NN(C(C)=O)C(c2ccccn2)S1 (stereo unspecified),0.69,1.9,i,0,27,1.6,0.4

# In the list so far, 2 contain bromine:
SMILES,Ecoli growth,LANA-H2A inh,FGF22 binding,ALR H2O2 inh,Beta2AR agonist,HNF4A DNA FP,UCH37 inh
Cc1cc(NC(=O)COC(=O)C2CSC3(C)CCC(=O)N23)ccc1Br (stereo unspecified),0.71,0.7,i,48,0,1.5,2.2
CC(C)(C)c1cc(NS(=O)(=O)c2ccc(Br)s2)no1,0.7,-0.4,i,4,5,7.0,0.5

# Screening results from PubChem BioAssay.
